hNpr1 antagonist – antagonists of human natriuretic peptide receptor Npr1. hit rate 1.6% among 76,000. Potency, µM (doses to about 46.3 µM), for inactives: at the highest dose activity change, negative = inhibition, usual class: inhibitors. HEK293 hNpr1 GloSensor cGMP, ANP-stimulated luminescence. P16066; active = well fitted inhibition curve with a large enough effect; inconclusive = small, poorly fitted or top-dose-only effect; inactive = no such curve, though single readings can be large or run the other way;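 note: nearly all actives have a fitted effect of over 60% in size; nearly all hits also lower the signal before the agonist is added; a reference antagonist and vehicle were the controls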
Target sequence (P16066 whole entry, looked up): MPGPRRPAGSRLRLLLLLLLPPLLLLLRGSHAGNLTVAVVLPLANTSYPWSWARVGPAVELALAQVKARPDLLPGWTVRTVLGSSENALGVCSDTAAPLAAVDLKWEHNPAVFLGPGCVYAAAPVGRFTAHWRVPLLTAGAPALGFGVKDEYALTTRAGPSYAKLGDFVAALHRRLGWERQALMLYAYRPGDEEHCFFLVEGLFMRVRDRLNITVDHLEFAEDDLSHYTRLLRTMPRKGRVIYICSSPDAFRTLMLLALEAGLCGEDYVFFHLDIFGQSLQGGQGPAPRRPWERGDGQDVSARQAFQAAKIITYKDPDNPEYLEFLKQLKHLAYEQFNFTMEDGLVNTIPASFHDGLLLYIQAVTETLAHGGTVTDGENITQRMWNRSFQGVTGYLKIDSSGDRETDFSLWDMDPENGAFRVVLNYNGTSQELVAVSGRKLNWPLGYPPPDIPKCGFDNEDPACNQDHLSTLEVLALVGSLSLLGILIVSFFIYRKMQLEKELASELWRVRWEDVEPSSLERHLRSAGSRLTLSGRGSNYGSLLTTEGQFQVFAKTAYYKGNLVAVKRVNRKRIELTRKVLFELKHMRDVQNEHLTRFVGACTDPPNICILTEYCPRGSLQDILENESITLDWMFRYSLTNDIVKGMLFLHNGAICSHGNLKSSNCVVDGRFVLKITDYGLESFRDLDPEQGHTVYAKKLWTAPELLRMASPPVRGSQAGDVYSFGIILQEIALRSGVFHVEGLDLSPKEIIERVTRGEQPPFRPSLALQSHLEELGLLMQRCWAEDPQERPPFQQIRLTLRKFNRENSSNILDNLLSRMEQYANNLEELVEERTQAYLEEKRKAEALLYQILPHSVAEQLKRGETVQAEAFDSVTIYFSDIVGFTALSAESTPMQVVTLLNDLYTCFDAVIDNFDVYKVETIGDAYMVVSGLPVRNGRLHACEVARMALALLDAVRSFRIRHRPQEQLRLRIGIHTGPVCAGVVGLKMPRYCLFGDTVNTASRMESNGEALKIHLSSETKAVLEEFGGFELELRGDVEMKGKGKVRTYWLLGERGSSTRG
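HEK293 cells stably expressing human Npr1 and cGMP GloSensor pGS-40F, loaded 2 h with 2% GloSensor reagent, given compound 30 min at room temperature. Luminescence read before and 20 min after 0.1 nM hNppA.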
The depositor's hits bear a star; ? = inconclusive; [ ] = remark or other dose. % is set by controls: 0 for no effect and ±100 for the full control effect; potency is the fitted concentration of half-maximal effect.

The first five records as a preview:
SMILES	hNpr1 antagonist
Cc1nn(C)c(C)c1C(=O)N1CCCC(c2ccc(C(=O)O)cc2)C1 (centres undefined)	16.4%
Cc1ccc(OCC(=O)c2ccc3c(c2)N(CCCC(=O)NC2CCCCC2)C(=O)CO3)cc1C	3.8%
Cc1cc(CN2CCC3(C2)C(=O)N(Cc2ccccc2)c2ccccc23)no1 (centres undefined)	10.5%
CNC(=O)c1noc([C@@H]2CC(F)(F)CN2C(=O)c2cccn2C)n1	5.4%
Cc1nnn2c(C(=O)Nc3ccc(Cl)nc3)cccc12	0.0%[70.6 µM]

Main list (from the top)
SMILES	hNpr1 antagonist
Cc1nn(C)c(C)c1C(=O)N1CCCC(c2ccc(C(=O)O)cc2)C1 (centres undefined)	16.4%
Cc1ccc(OCC(=O)c2ccc3c(c2)N(CCCC(=O)NC2CCCCC2)C(=O)CO3)cc1C	3.8%
Cc1cc(CN2CCC3(C2)C(=O)N(Cc2ccccc2)c2ccccc23)no1 (centres undefined)	10.5%
CNC(=O)c1noc([C@@H]2CC(F)(F)CN2C(=O)c2cccn2C)n1	5.4%
Cc1nnn2c(C(=O)Nc3ccc(Cl)nc3)cccc12	0.0%[70.6 µM]
COc1cc(=O)n2c(c1C(=O)Nc1cccc(F)c1)CCCC2	-0.8%
Cc1ccsc1C(=O)N1CCc2onc(-c3ccc(F)c(F)c3)c2C1	?
COc1cccc(-c2cn3c(n2)N(C(=O)C2CCC2)CCC3)c1	-3.4%
O=C(NC1CCCCC1)C1CN(C(=O)c2ccc(F)c(F)c2)CC12CCOCC2 (centres undefined)	0.9%
COc1ccc(-c2cc(N3CCCC(NC(=O)c4c[nH]c5ccccc45)C3)n[nH]2)cc1 (centres undefined)	-20.3%
CCN1C(=O)C2CC3(CCN(C(=O)c4ccc(OC)cc4)CC3)CN2C1=O (centres undefined)	-3.1%
Cc1ccc(OCC(=O)c2ccc3c(c2)N(C(C)C(=O)NCC2CCCO2)C(=O)CO3)cc1C (centres undefined)	0.9%
Cc1noc2c(-c3cccc(O)c3)cc(-c3ccccc3)nc12	-2.5%[70.6 µM]
COc1ncccc1-c1cnc2[nH]cc(CC(=O)Nc3cccc(Cl)c3)c2c1	?
Cc1cc2nc3n(c(=O)c2n1CC(=O)Nc1ccc(F)cc1)CCC3	0.0%
O=C(O)C[C@@H]1CCN(C(=O)Cc2ccccc2)C[C@@H]1CCN(CCN1CCOCC1)c1ccccc1	1.4%
CC(C)NC(=O)C(C)[C@@H]1CC[C@@]2(C)CC[C@H](NC(=O)CC(C)(C)C)[C@@H](C)[C@@H]2[C@H]1O (some centres undefined)	0.7%[70.6 µM]
Oc1cccc(-c2cc3c(cn2)NCCN(Cc2ccccc2)C3)c1	3.3%[70.6 µM]
CC(=O)N1CCC(N2C[C@H](NC(=O)c3ccoc3C)[C@@H](C3CC3)C2)CC1	0.0%
C[C@H](O)c1onc(-c2ccc(Cl)cc2)c1C(=O)NC1CC1	-0.4%[70.6 µM]
CN(C)c1ccc(CN2CCCC3(CC(Cc4ccccc4)=NO3)C2)cc1 (centres undefined)	11.5%
Cc1nn(C)c(C)c1CNC(=O)C1CC(=O)N(c2n[nH]c3ccccc23)C1 (centres undefined)	2.7%
Cc1cnc(C(=O)NCC(=O)N2CCCCCNC(=O)CC2c2ccccc2)cn1 (centres undefined)	4.7%
COc1cc(F)ccc1-c1nc(-c2c(C)noc2C)cc2cc(C)oc12	-18.5%[70.6 µM]
CC(=O)N1CCCN(c2ncnc3c2CN(c2ccc([N+](=O)[O-])cc2)C(=O)N(C)C3)CC1	9.3%
COc1ccc(NC2CCCN(C(=O)c3ccccc3C(F)(F)F)C2)cc1OC (centres undefined)	2.3%
Cc1ccc(C2(O)CCN(C(=O)CCn3cnc4ccccc43)CC2)nc1	4.0%
N#Cc1ccc(CC(=O)N2CC(CNC(=O)c3cccnc3)C3(C2)CN(c2ccccc2)C3)cc1 (centres undefined)	7.0%
CC1Oc2ccc(NS(=O)(=O)c3cccc(Cl)c3)cc2CN(Cc2ccccc2Cl)C1=O (centres undefined)	-24.3%
COc1ccc(N=C2S[C@H]3[C@H]([C@@H](O)[C@H](O)C[C@@H]3C(N)=O)N2Cc2ccc(-c3ccccn3)cc2)cc1	-5.6%
CCNC(=O)N1CCc2c(sc3ncnc(NCC)c23)C1	-21.6%
O=C1Cc2c(-c3cccc(CO)c3)n[nH]c2CN1CC1CC1	0.1%[70.6 µM]
COCc1nc(CCNC(=O)Cc2ccccc2)no1	0.0%
O=C(Nc1ccccc1)c1ccc2c(c1)OCCN(CCC(F)(F)F)C2	8.1%[70.6 µM]
Cc1cc(C(F)(F)F)nn1CC(=O)N1CCc2n[nH]c(=O)n2CC1	-2.5%
CN(C)[C@@H]1[C@@H](NS(=O)(=O)c2cccc3c2OCCO3)[C@H]2CCO[C@H]21	2.4%
COc1ccc(CC(=O)NC2CCN(c3ccccc3)C2=O)c(Cl)c1 (centres undefined)	5.8%
Cc1cc(C(=O)N2CCNCC(O)C2)c(-c2ccccc2)o1 (centres undefined)	4.8%
COC(=O)[C@@H]1Cc2c([nH]c3ccccc23)[C@H]2C[C@@H](NC3CC3)C[C@@H](c3ccc(F)cc3)N21	?
CCOc1cccc(-c2noc(-c3ncn4c3COC(c3ccc(OC)cc3)C4)n2)c1 (centres undefined)	-2.6%
C=CCN(Cc1nc(-c2cccc(Cl)c2)oc1C)C1CCS(=O)(=O)C1 (centres undefined)	0.0%
CCn1c(=O)c2ccnn2c2ccc(C(=O)Nc3ccc(C)c(F)c3)cc21	4.3%
Cc1ccc(Cn2c(=O)c(-c3noc(C)n3)c3n(c2=O)CCCC3)cc1	3.1%
CCOC(=O)c1sc(NC(=O)CC[C@H]2NC(=O)c3ccccc3NC2=O)nc1C	-15.8%
O=C(Cc1c[nH]c2ccccc12)NCc1cccnc1N1CCOCC1	5.7%

Arranged by value in hNpr1 antagonist (highest first): 6 of the compounds above.
| structure | hNpr1 antagonist |
| --- | --- |
| COc1ccc(CC(=O)NC2CCN(c3ccccc3)C2=O)c(Cl)c1 (centres undefined) | 5.8% |
| Cc1cc(C(=O)N2CCNCC(O)C2)c(-c2ccccc2)o1 (centres undefined) | 4.8% |
| CN(C)[C@@H]1[C@@H](NS(=O)(=O)c2cccc3c2OCCO3)[C@H]2CCO[C@H]21 | 2.4% |
| C=CCN(Cc1nc(-c2cccc(Cl)c2)oc1C)C1CCS(=O)(=O)C1 (centres undefined) | 0.0% |
| Cc1cc(C(F)(F)F)nn1CC(=O)N1CCc2n[nH]c(=O)n2CC1 | -2.5% |
| CCNC(=O)N1CCc2c(sc3ncnc(NCC)c23)C1 | -21.6% |

Next section
SMILES	hNpr1 antagonist
CCn1cc2c3c(cccc31)CN(C(=O)c1ccc(OC)c(F)c1)CC2	-6.3%
CC(=O)c1ccc(NC(=O)O[C@@H]2CO[C@H]3[C@@H]2OC[C@@H]3NC(=O)c2ccco2)cc1	-1.7%[70.6 µM]
C[C@H](O)c1onc(-c2ccc(F)cc2)c1C(=O)NC(C)(C)C	-0.4%[70.6 µM]
COCC(=O)Nc1ccc([C@@H](O)[C@H]2COCC(=O)N2Cc2ccccc2F)cc1	0.2%[70.6 µM]
Cc1noc(-c2ccco2)c1C(=O)NCCOc1ccccc1	-13.3%
O=C(CCc1ccc(O)cc1)N1CCC2(CCNCC2)CC1	4.6%
Cc1cccc(CN2CCCC(O)(CNCc3cccc(F)c3)C2=O)c1 (centres undefined)	0.8%
CC1(C(=O)NC2CCC2)CN(Cc2ccccc2)Cc2ccc(N3CCOCC3)nc21 (centres undefined)	-25.9%[70.6 µM]
COc1cc(NC(=O)C2CN(S(=O)(=O)C3CC3)CC23CCCCC3)cc(OC)c1 (centres undefined)	-15.0%
CCn1cc(CN(C)C(=O)c2oc3c(C)c(C)ccc3c2C)cn1	-12.1%
COc1cccc(CNC(=O)[C@@]23CCCC[C@H]2N(CCC(C)C)C(=O)CC3)c1OC	-16.5%
Cc1nocc1C(=O)N1C[C@@H](COc2ccccc2)[C@H](C(N)=O)C1	3.8%
O=C(Nc1cccc(Br)c1)C1CC(=O)N(c2n[nH]c3cccc(F)c23)C1 (centres undefined)	-2.4%
O=C(NCCOc1ccccc1)C1CN(Cc2ccccc2)C(=O)N1 (centres undefined)	0.0%[70.6 µM]
CCOc1cc(=O)n2c(c1C(=O)Nc1cc(OC)cc(OC)c1)CCCC2	-0.5%
COc1ccc(CN2C[C@H]3CN(S(=O)(=O)c4ccc(C)cc4)CCN3C2=O)cc1	?
CCCCc1cc(C[C@H]2CNCC[C@H]2CC(=O)NCc2ccc(F)cc2)no1	?
COCCNCc1nc2c(n1Cc1ccccc1)C(=O)N(Cc1ccccc1C#N)CCN2	-7.7%
COc1ccc(CN2CCCC(c3nn(-c4ccc(Cl)cc4)c(=O)[nH]3)C2)cc1 (centres undefined)	-4.3%
Cc1cc(C)cc(C(=O)NC2CCN(c3cc(-c4ccc(F)cc4)[nH]n3)C2)c1 (centres undefined)	-11.3%
O=C(NCc1ccc(N2CCOCC2)cc1)C1CCN(c2cnc3nccnc3c2)CC1	-8.1%
Cc1ccc(CNC(=O)Cn2c(-c3ccccc3)nc(C)c(CCO)c2=O)cc1	-7.8%
Cc1cc(C)cc(N2CCC(NC(=O)c3ccc4nc[nH]c4c3)C2=O)c1 (centres undefined)	1.2%
O=[S+]([O-])(c1ccccc1)N1CC2(COCCN(c3nccc(C(F)(F)F)n3)C2)C1	-5.0%[70.6 µM]
COc1ccc(NC(=O)c2ccc3c(c2)OCCN(Cc2ncccn2)C3)c(F)c1	3.4%[70.6 µM]
CN(CC1CCOC1)C(=O)NCc1ccc(F)cc1 (centres undefined)	0.6%
CCc1ccc(NC(=O)N2C[C@@H](F)C[C@H]2C(=O)N2CCCCC2)cc1	-2.3%
CC1(C(=O)N2CCCC(CCc3ccc(F)c(F)c3)C2)CC1 (centres undefined)	-17.2%
O=C(CCC[C@@H]1[C@H]2CCCN3CCC[C@@H](CN1C(=O)NCc1ccc(F)cc1)[C@@H]23)NCC1CC1	-9.8%
CSCC(=O)N1CCC2(CCN(Cc3nccnc3C)CC2)C(CO)C1 (centres undefined)	-2.3%
O=C(C1CC1)N1CCC2(CC1)NCCc1c2[nH]c2ccccc12	3.5%
N#Cc1cccc(-c2cn3c(n2)N(C(=O)c2ccccn2)CCC3)c1	-6.3%
CN1C(=O)c2cccn2CC1C(=O)NCc1cccc(F)c1 (centres undefined)	-8.5%
CN(C)CCNC(=O)c1cc2c(n1C)CCN(Cc1ccccc1)C2	-3.4%
O=C1CCN(S(=O)(=O)c2ccc3c(c2)CCC3)CCCCCCN1	4.3%
N[C@@H]1CC[C@@H]1NC(=O)c1ccccc1OC(F)(F)C(F)F	2.8%
CN(Cc1ccccc1)C(=O)C[C@@H]1O[C@H](CNC(=O)C2CCCC2)[C@@H](O)[C@H]1O	4.7%[70.6 µM]
COCc1nnc2n1CCC(NC(=O)c1cscn1)CC2 (centres undefined)	3.5%
Cc1ccc(OCc2nc(C3CCCCN3C(=O)NCc3ccc(F)cc3)no2)cc1 (centres undefined)	4.9%
CN(c1ccccc1)c1ccc2nnc(-c3ccc(F)cn3)n2n1	-8.1%[70.6 µM]
COCc1ccc2c(c1)c(OC(C)(C)C(=O)NCc1cnccn1)nn2Cc1ccccc1	4.0%
O=C(Cc1ccc(F)cc1)NC1CCN(c2ccccc2)C1=O (centres undefined)	-1.8%
COCCN(C)C[C@@H]1CN(C(=O)c2ccc(=O)n(C)c2)C[C@@H]1CO	-4.9%
O=C(c1ccccc1Cl)N1CCN(C(=O)c2nnn3c2COC(c2ccccc2)C3)CC1 (centres undefined)	-3.9%
Cc1cn2nnc(C(=O)N3CCC(C(=O)Nc4ccc(F)c(Cl)c4)CC3)c2c(=O)[nH]1	21.7%
NC(=O)C1(N2CCCCC2)CCN(C(C(=O)O)c2ccc(N)c(F)c2)CC1 (centres undefined)	-1.0%
CC1(C)[C@H]2CC[C@@H](CNC(=O)C3CC3)[C@@H]1C2	15.7%[70.6 µM]
Cn1c(CCC(=O)N2CC[C@H](O)C2)nc2cc(S(=O)(=O)N3CCCC3)ccc21	-0.9%
O=C1NCCCCCN(C(=O)CC2CCCCC2)[C@@H]2C[C@@H](C(=O)N3CCc4ccccc4C3)C[C@H]12	-17.7%
c1ccc(C2CCN(c3ccc4nnc(-c5ccccn5)n4n3)CC2)cc1	-4.5%[70.6 µM]
CCN1CC(c2ccccc2)CC2(CCN(C(=O)c3cnc(C)nc3)CC2)C1 (centres undefined)	-2.1%
COc1ccc(C(=O)N2CCCCCNC(=O)[C@@H]3CCC[C@@H]32)cn1	5.3%
O=C(c1cccc(Br)c1)N1CCN(c2cc(-c3ccc(F)cc3)[nH]n2)CC1	-12.7%
COCc1ccc2c(c1)c(OC(C)(C)C(=O)NCC(F)(F)F)nn2Cc1ccccc1	0.0%[70.6 µM]
CN(CC1CCOCC1)C(=O)c1cccs1	0.7%
COc1ccc(C)cc1NC(=O)C1CN(S(=O)(=O)c2cccnc2)CC12CCCCC2 (centres undefined)	-3.1%
CCOC(=O)C1=CN(CC(=O)N(CC)c2cccc(C)c2)S(=O)(=O)N=C1C	-15.6%
Cc1ccc2c(c1)nc1n2[C@@H](CNCc2nccn2C)COC1	5.4%[70.6 µM]
O=C(Nc1cccc(Cl)c1)N1CCC(c2noc(COc3cccnc3)n2)CC1	-17.7%
O=C(Nc1cccc(F)c1)N1CCC(Oc2ncccc2C(=O)N2CCCCC2)C1 (centres undefined)	-8.4%
Continued:
SMILES	hNpr1 antagonist
O=C(c1ccon1)N1CC[C@@H]2[C@@H](CCC(=O)N2CC2CCNCC2)C1	-1.3%
O=C(NC1CCCc2c1[nH]c1ccccc21)c1n[nH]c2c1CCCC2 (centres undefined)	-5.5%
CC(=O)N1CC2(Cc3ccccc31)CN(C(=O)c1ccc(C)cc1)C2	3.2%
COCCCNC(=O)c1cc2c(=O)[nH]c(C)cn2n1	3.8%

Source: PubChem BioAssay

Only part of the results is shown. The share of hits here may be higher or lower than overall.
